VDR inh: blocks the human vitamin D receptor; hit rate 0.93% among 400,000; Potency, µM, for inactives: max response, negative = inhibition, actives largely listed as inhibitors; AID 504847; VDR-SRC2-3 peptide fluorescence polarization, 2 h; P11473; active means well fitted inhibition curve with a large enough effect; inconclusive means small, poorly fitted or top-dose-only effect, or another doubt; inactive means no such curve, though single readings can be large or run the other way; further: series mostly up to about 120 µM
Target sequence (P11473 whole entry, looked up): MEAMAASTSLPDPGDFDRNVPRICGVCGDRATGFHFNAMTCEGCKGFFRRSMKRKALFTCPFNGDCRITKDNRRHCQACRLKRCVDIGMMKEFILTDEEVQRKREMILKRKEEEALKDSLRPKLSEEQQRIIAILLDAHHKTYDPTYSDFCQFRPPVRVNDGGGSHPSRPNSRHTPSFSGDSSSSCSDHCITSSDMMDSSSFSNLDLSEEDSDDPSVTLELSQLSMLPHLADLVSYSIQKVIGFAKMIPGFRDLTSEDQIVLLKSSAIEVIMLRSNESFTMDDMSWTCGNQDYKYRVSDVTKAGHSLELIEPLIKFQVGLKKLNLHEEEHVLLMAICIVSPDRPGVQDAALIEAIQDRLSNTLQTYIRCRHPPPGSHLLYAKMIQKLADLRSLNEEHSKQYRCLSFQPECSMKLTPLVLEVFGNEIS
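Inhibition of the VDR/SRC2-3 peptide interaction is quantified by fluorescence polarization. Compounds (23 nl, pintool) incubate with the reagents for 2 hours at ambient room temperature.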
Active calls of the source: *; ? = inconclusive. On the % scale 0 is the no-effect control and ±100 the full control effect; potency means the concentration at half of the fitted maximal effect. Only part of the results is shown; the hit share may differ from the screen's.

molecule	VDR inh
CC(C)n1cc(CN2CCC(n3nccc3NC(=O)C3CCCC3)CC2)cn1	-8%
Cc1ccc(Cn2c(C)c3cnn(CC(=O)N4CCN(c5cc(C)ccc5C)CC4)c(=O)c3c2C)cc1	8%
Cc1ccc(NC(=O)c2cc(N3C(=O)C4CC=CCC4C3=O)ccc2N2CCCCC2)cc1 (configuration not stated)	-8%
Cc1ccc(OCc2nc(C#N)c(N3CCCC3)o2)cc1	3%
CCNc1ccc(S(=O)(=O)N(C)C)cc1NCC(=O)Nc1ccc(F)c(Cl)c1	-18%
Cc1nsc2c1ccc1ccccc12	-14%
COc1ccc(C(CNC(=O)c2c(C)nn(Cc3ccc(C)cc3)c2Cl)N2CCOCC2)cc1 (configuration not stated)	-8%
O=c1c2ccccc2c2ccccc2c(=O)n1-c1ccccc1	?

Following part:
molecule	VDR inh
CC(C)CC(=O)Nc1ccc(N2CCN(C(=O)c3cccs3)CC2)cc1	6%
CCCC(=O)OCC(=O)Nc1ccc2[nH]c(=O)[nH]c2c1	-9%
COc1ccc(C(=O)NNc2ccccc2)cc1OC	-21%
CN(CC(=O)Nc1nccs1)S(=O)(=O)c1ccc(F)cc1	10%
O=C(NC(Cc1c[nH]c2ccccc12)c1nnc2n1CCCCC2)c1ccccc1Cl (configuration not stated)	-5%
COC(=O)C1=C(C)N(C)C(=O)NC1c1cc2c(cc1[N+](=O)[O-])OCO2 (configuration not stated)	-12%
CC1CCc2sc(C(=O)OCC(=O)NCc3ccccc3)cc2C1 (configuration not stated)	-15%
CSc1nnc(NC(=O)c2nc(S(=O)(=O)Cc3ccccc3F)ncc2Cl)s1	20µM*

The list continues:
molecule	VDR inh
CCN(CCNCC(O)COc1ccccc1C(C)C)c1cccc(C)c1 (configuration not stated)	10%
Cc1ccc(OCCC(=O)OCC(=O)Nc2ccc3c(c2)OCCO3)cc1	-8%
CC(=O)N1c2ccccc2S(=O)(=O)c2c1ccc1ccccc21	-3%
Cc1ccc(C(=O)NN(CCC#N)C2=NS(=O)(=O)c3ccccc32)cc1	19%
CC[C@H](C)[C@H](NC(=O)[C@H](Cc1ccc(O)cc1)NC(=O)[C@@H](NC(=O)[C@@H](N)CCCN=C(N)N)C(C)C)C(=O)N[C@@H](Cc1cnc[nH]1)C(=O)N1CCC[C@H]1C(=O)N[C@@H](Cc1ccccc1)C(=O)O	-4%
NC(=S)NNC(=O)C12CC3CC(CC(C3)C1)C2	-5%
O=C(CN1CCc2ccccc2C1)Nc1cccc(S(=O)(=O)N2CCOCC2)c1	8%
O=C(CSc1ncnc2[nH]ncc12)Nc1cccc(Oc2ccccc2)c1	-6%

(cont.)
molecule	VDR inh
Cc1c(-c2cccc(NC(=O)Cc3ccccc3)c2)nc2ncccn12	11%
O=C(CNCc1ccco1)Nc1cc(S(=O)(=O)N2CCOCC2)ccc1N1CCCC1	-2%
CCN(CC)C(=O)CSc1ncnc2c1nnn2-c1ccc(F)cc1	-4%
COc1ccc(NC(=O)CCc2nc(-c3ccccc3F)no2)cc1	-2%
O=C(Nc1ccncc1)c1ccc([N+](=O)[O-])cc1Cl	-2%
COc1ccc(N(CC(=O)Nc2cccnc2)S(=O)(=O)c2ccccc2)cc1OC	12%
Cc1ccc(OCC(=O)Nc2ccc(S(=O)(=O)N3CCOCC3)cc2)c(C)c1	-4%
C/C(=N\OCC(=O)Nc1ccccc1Br)c1cccs1	8%

Remaining list, next part
molecule	VDR inh
CC(C)CC(=O)Nc1nnc(SCc2cc(=O)n3ccccc3n2)s1	5%
Cc1ccc(Nc2nc(CSc3nnnn3C)cs2)cc1	-14%
O=C(NNC(=O)c1ccco1)c1cccc([N+](=O)[O-])c1	-2%
CC(C(=O)N(C)Cc1cccc(F)c1)N1CCN(S(=O)(=O)c2ccc3c(c2)OCCCO3)CC1 (configuration not stated)	-7%
CS(=O)(=O)c1ccc(C(=O)Nc2ccccc2Cl)cc1	2%
N/C(=N\N=C\c1ccc(O)c(O)c1)c1nonc1N	-19%
Cc1ccccc1OCC(=O)OCC(=O)Nc1ccc(Cl)cn1	0%
CC1c2cc3c(cc2CCN1C(=O)c1ccc(Cl)cc1)OCCCO3 (configuration not stated)	10%

Following part:
molecule	VDR inh
N#CCC(=O)N/N=C/c1cn(Cc2ccc(Cl)cc2Cl)c2ccccc12	2%
C=CCSc1nnc2nc3c(nn12)c1cc(C)ccc1n3CC=C	-5%
COc1ccc(-c2cn3c(C)c(C(=O)N4CCN(c5ccccc5F)CC4)sc3n2)cc1	-28%
C[C@@H]1C[C@H]2[C@@H]3C[C@H](F)C4=CC(=O)C=C[C@@]4(C)[C@]3(F)[C@H](O)C[C@]2(C)[C@@]1(O)C(=O)CO	-2%
COc1cccc(NC(=O)Cn2c(-c3cncs3)nc3ccccc32)c1	4%
COc1ccc(C(=O)NCCCN2CCN(CCCNC(=O)c3ccc(OC)c(OC)c3)CC2)cc1OC	-11%
CN(Cc1ccccc1Cl)C(=O)CNC(=O)C12CC3CC(CC(C3)C1)C2	16%
COc1ccc(N=C2S/C(=C\c3cc(C)n(C)c3C)C(=O)N2C)cc1	9%

The listing continues:
molecule	VDR inh
CCN(CC)C(=O)[C@H]1CC(CC(=O)NCc2cccc(C(F)(F)F)c2)C(=O)N2CCc3c([nH]c4ccc(OC)cc34)[C@]12C (some centres not stated)	-9%
O=C(O)C1=C(OCc2ccccc2)C(=O)NCC1	7%
C[C@@H]1O[C@H](O[C@@H]2[C@@H](Oc3cc(O)c4c(c3)O[C@H](c3ccc(O)cc3)CC4=O)O[C@@H](CO)[C@@H](O)[C@H]2O)[C@@H](O)[C@H](O)[C@@H]1O	5%
CCc1cc2c(=O)c(-c3ccc4c(c3)OCCO4)coc2cc1OC(=O)c1ccco1	-13%
COc1ccc(-c2nc(CS(=O)CC(=O)N3CCCC3)c(C)o2)cc1 (configuration not stated)	-12%
O=C(NCc1ccccc1)c1ccc(OC2CSC2)cc1	6%
COc1cc(-c2cc3n(C)c(C)c(CCC(=O)Nc4ccc(F)cc4)c(=O)n3n2)cc(OC)c1OC	-3%
COc1cc(CN2CCNC(=O)C2CC(=O)NCCCC2CCCC2)cc(OC)c1 (configuration not stated)	-14%

The list continues:
molecule	VDR inh
CCc1nc2ccc(C(=O)NCCc3ccc(SC)cc3)cc2nc1CC	2%
CCOC(=O)C1=C(CN2CCN(CCC#N)CC2)NC(=O)NC1c1ccc2c(c1)OCO2 (configuration not stated)	3%
CCOC(=O)CSC1=Nc2ccccc2C2=NC(CC(=O)NCc3ccccc3)C(=O)N12 (configuration not stated)	-14%
COCCNC(=O)[C@H](CSCc1ccccc1)N1Cc2ccccc2C1=O	-11%
O=C(NNC(=S)NC1CCCCC1)c1ccc2c(c1)OCO2	4%
Cc1ccc(OCC(=O)N(Cc2ccco2)c2ccccn2)cc1	14%
O=C(COc1cccnc1[N+](=O)[O-])Nc1ncc(Cl)cc1Cl	28%
CCOC(=O)CNC(=O)Cn1cnc2c(nnn2-c2ccc(OC)cc2)c1=O	-14%

(next part)
molecule	VDR inh
COc1ccc(N2CC(c3nc(-c4cc(OC)c(OC)c(OC)c4)no3)CC2=O)cc1Cl (configuration not stated)	4%
Cc1ccc(Cl)cc1N1CCN(c2ncnc3onc(-c4ccc(F)cc4)c23)CC1	3%
Cc1csc(SCCn2c(N3CCCC3)nc3c2c(=O)[nH]c(=O)n3C)n1	7%
CC(C)(C)n1nc(C2CC2)cc1NC(=O)Nc1ccc(Cl)cc1	2%
Cc1nc2nc(-c3ccccc3)nn2c(C)c1Cl	4%
Clc1nc(Nc2ccccc2)nc(Nc2ccccc2)n1	-6%
Cc1cc(S(=O)(=O)NCC(C)C)ccc1OCC(=O)N1CCOCC1	12%
CCn1cc(CN2CCCC(C(=O)Nc3cccc(-n4cccn4)c3)C2)c(C)n1 (configuration not stated)	?

Remaining list, next part
molecule	VDR inh
Cc1ccc(NC(=O)c2ccc(NC(=O)C3CCCC3)cc2)c(C)c1	1%
O=C(Cn1cnc2ccccc21)N/N=C/c1cccs1	15%
COC(=O)[C@@]12CCCCN1[C@H](c1ccc(-c3ccc(OC)cc3)c(OC)c1)[C@@H]1C(=O)N(C)C(=O)[C@@H]12	-5%
CCOc1ccccc1-n1c(SCC(=O)NC(C)CC)nnc1-c1ccoc1C (configuration not stated)	1%
CCCCN(C(=O)c1cnc(C)cn1)c1c(N)n(CCC)c(=O)[nH]c1=O	21%
COc1ccc(CN2CCc3nc(SCC(=O)Nc4cc(C)cc(C)c4)[nH]c(=O)c3C2)cc1	6%
COC(=O)CCN(c1ccccc1)S(=O)(=O)c1cc(-c2cc(C)no2)ccc1C	5%
CC1=C(C(=O)O)N2C(=O)C(NC(=O)c3ccn(C)n3)C2SC1 (configuration not stated)	-16%

Additional structures:
molecule	VDR inh
O=C(O)c1cccnc1SC1CC(=O)N(c2ccccc2)C1=O (configuration not stated)	-13%
Cc1ccc(N(CC(=O)NC2CCCC2)C(=O)c2nsc(Cl)c2Cl)cc1	12%
COc1ccc(-c2nnc(SCC(=O)Nc3cccc(Cl)c3)o2)cc1	-12%
COc1ccc(C(=O)Nc2ccc(-c3cc4ccccc4oc3=O)c(C)c2)cc1Br	-6%
CSc1nn(Cc2cccc(C)c2)c(N)c1S(=O)(=O)c1ccccc1	-6%
N#CC1C(=O)NC(N2CCN(c3ccccc3)CC2)=NC12CCCCC2 (configuration not stated)	-7%
CC1CCN(c2nn3c(=O)c(C(=O)NC(C)C)cnc3s2)CC1	9%
O=C(Cn1cnc2ccc(Cl)cc2c1=O)NC1CCS(=O)(=O)C1 (configuration not stated)	7%

Other entries follow:
molecule	VDR inh
O=C(Nc1ccc(NC(=O)C2CC2)cn1)c1ccccc1Cl	16%
Cc1sc(N/N=C/c2cccnc2)nc1-c1ccc(Cl)cc1	-7%
COc1cc([C@@H]2CC=C(C(=O)O)[C@H](c3ccc(F)cc3)N2S(=O)(=O)c2ccc(C)cc2)cc(OC)c1OC	-8%
Cc1nc(NC(=S)NC(=O)COc2ccccc2Cl)ccc1Br	-6%
Cc1ccc(C)c(NC(=O)C(=O)NCC(c2cccnc2)N2CCN(c3ccc(F)cc3)CC2)c1 (configuration not stated)	-2%
COc1cccc(NC(=O)Cn2nnc(-c3ccccc3N)n2)c1	0%
CN1CCN(S(=O)(=O)c2ccc(NC(=O)C(C)(C)C)cc2)CC1	-18%
CCCC[C@H](CC(=O)c1ccccc1)[C@@H](OC(C)=O)C(=O)Oc1c(C(C)C)cccc1C(C)C	-18%

Continuation:
molecule	VDR inh
O=C(CN1CC[n+]2c(-c3cccs3)csc21)c1ccc(Br)cc1	?
O=C(N/N=C/c1cccs1)c1cc(-c2ccncc2)nc2ccccc12	-9%
COC(=O)c1sccc1NC(=O)CSc1nnnn1-c1ccccc1C	-4%
O=C(NCCCN1CCOCC1)/C(=C/c1cccs1)NC(=O)c1ccccc1	0%
CCc1nnc(NC(=O)CCC(=O)N2CCN(c3cc(Cl)ccc3C)CC2)s1	-21%
C[C@@H]1C(=O)O[C@@H]2C[C@]34[C@H]5C[C@@H](C(C)(C)C)[C@@]36[C@@H](OC(=O)[C@@H]6O)O[C@@]4(C(=O)O5)[C@@]12O	6%
CCCS(=O)(=O)c1nc(S(=O)(=O)c2ccc(C)cc2)c(NCCCN2CCOCC2)s1	-5%
O=S1(=O)C=C(SCc2ccccc2)Nc2ccccc21	2%

Other results:
molecule	VDR inh
CC1CCN(c2ccc3nnc(CCC(=O)Nc4ccc(F)c(F)c4)n3n2)CC1	-11%
CCOc1ccc(NC(=O)NCc2cccnc2)cc1	-13%
CCC[C@@H](O)c1cc2cc(OC)c(OC)cc2c(=O)o1	5%
CCC(=O)Nc1ccc2nc(SCCOc3ccc(C)cc3)sc2c1	4%
COc1ccc(Cn2c(=O)n(-c3ccc(C)cc3)c(=O)c3c2c2cc(C)ccc2n3C)cc1	4%
CCc1ccc(NC(=O)CN2C(=O)c3cccc4cccc2c34)cc1	5%
COc1ccc(NC(=O)Nc2c(C)noc2-c2ccccc2)cc1	-13%
CC1CCCN(c2ncnc3c2cnn3-c2ccccc2)C1 (configuration not stated)	1%

The list continues.
molecule	VDR inh
COc1ccc(-n2ncc3c2CC(C)(C)CC3NC(=O)Cc2nonc2C)cc1 (configuration not stated)	-10%
Cc1cc(NS(=O)(=O)c2ccc(Nc3nc(-c4ccc(O)cc4)cs3)cc2)no1	-11%
COc1ccc(C2SCC(=O)N2c2ccccc2)cc1 (configuration not stated)	-7%
CCc1cccc2c(-c3ccccc3)nc(SCC(=O)Nc3ccc(OC)cc3)nc12	2%
COC(=O)c1ccc(OC(=O)c2ccco2)cc1	-8%
COc1cc(C2NC(=O)NC(C)=C2C(=O)OC(C)(C)C)ccc1OCC(=O)O (configuration not stated)	-3%
O=C(O)c1ccc(C=NN2CCCCCC2)cc1	-16%

Five structures from above, ordered by count of non-hydrogen atoms, ascending.
molecule	VDR inh
O=C(O)C1=C(OCc2ccccc2)C(=O)NCC1	7%
O=S1(=O)C=C(SCc2ccccc2)Nc2ccccc21	2%
Cc1ccc(C(=O)NN(CCC#N)C2=NS(=O)(=O)c3ccccc32)cc1	19%
CCn1cc(CN2CCCC(C(=O)Nc3cccc(-n4cccn4)c3)C2)c(C)n1 (configuration not stated)	?
CCCS(=O)(=O)c1nc(S(=O)(=O)c2ccc(C)cc2)c(NCCCN2CCOCC2)s1	-5%

Structures listed so far printed as active in VDR inh.
molecule	VDR inh
CSc1nnc(NC(=O)c2nc(S(=O)(=O)Cc3ccccc3F)ncc2Cl)s1	20µM*

Source: PubChem BioAssay (National Center for Advancing Translational Sciences (NCATS))
